NPYLR7 ag – activates Aedes aegypti NPYLR7 receptor; HEK293T NPYLR7/Galpha15, GCaMP6s calcium fluorescence; activation, % at 10 µM; 270,000 compounds, 0.15% hits; AID 1259423; in the data active = activation above about 40%;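 note: 0% = vehicle and 100% = reference agonist at the receptor; some compounds past the cut are filed as inactive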
NPYLR7 ag max-min – second read-out of NPYLR7 ag, no call of its own (marks repeat the call); activation, %; measured here: Max-Min RFU normalised activation; some inactives read as strong as hits;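 span of the calcium signal over five minutes; 0% = vehicle and 100% = native peptide agonist; compound fluorescence can raise it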
An asterisk follows results filed as active; & = joins results of further samples.

Compound,NPYLR7 ag,NPYLR7 ag max-min
COc1cccc(CN2CCNC(=O)C2CC(=O)NCCOC(C)C)c1OC (centres undefined),1.5,0.5
CC(C)(C)c1[nH]ncc1S(=O)(=O)Nc1ccc(Cl)nc1,1.6,9.9
O=C(CCl)Nc1cc(S(=O)(=O)N(C(=O)CCl)c2cccc(Cl)c2)ccc1Cl,-5.7,-11.1
CCn1c(=O)c2c(nc3n2CCCN3c2ccc(C)cc2C)n(C)c1=O,-8.7,-12.3
Cc1ccc(C(=O)Nc2c(N)nc(SCC(=O)Nc3ccccc3F)[nH]c2=O)cc1,-7.2,-1.9
CCOC(=O)CSc1nc2c(c(=O)[nH]c(=O)n2C)n1C,-6.0,-11.3
CCN(CC)C(=O)Oc1ccc2c(ccn2Cc2cccc(C(F)(F)F)c2)c1-c1ccc(C#N)cc1,9.8,2.4
O=C(C1CCCO1)N1CCN(Cn2ncc(Cl)c(Cl)c2=O)CC1 (centres undefined),5.5,2.1
O=c1c2ccccc2nc2ccc(Cl)nn12,2.8,1.5
COCCN1C[C@H]2COc3ccccc3[C@H]2N(C(=O)c2ccno2)CCC1=O,18.2,26.8
C=CCN(CC=C)c1nc(-c2ccc(OC)cc2)ncc1C(=O)OCC,-6.2,-8.1
Fc1cccc(CN2CCN(Cc3ccc(-c4cccnc4)cc3)CC2)c1,5.5,4.8

Quoted at random: four records from the list, in no set order.
Compound,NPYLR7 ag,NPYLR7 ag max-min
COc1cccc(CN2CCNC(=O)C2CC(=O)NCCOC(C)C)c1OC (centres undefined),1.5,0.5
CCN(CC)C(=O)Oc1ccc2c(ccn2Cc2cccc(C(F)(F)F)c2)c1-c1ccc(C#N)cc1,9.8,2.4
Fc1cccc(CN2CCN(Cc3ccc(-c4cccnc4)cc3)CC2)c1,5.5,4.8
CC(C)(C)c1[nH]ncc1S(=O)(=O)Nc1ccc(Cl)nc1,1.6,9.9

Additional records:
Compound,NPYLR7 ag,NPYLR7 ag max-min
CO[C@H]1C(=O)N(Cc2ccccc2)C2(CCN(C(=O)Nc3ccccc3)CC2)[C@@H]1CO,27.0,28.7
CCN1C[C@H]2COc3ccc(C)cc3[C@H]2N(C(=O)C2CCC2)CCC1=O,25.5,31.5
O=C(Nc1cccc(Cl)n1)NC1CCN(C2CC2)CC1,-0.3,-0.3
Cc1ccc(C(=O)NNC(=O)/C=C\C(=O)O)cc1,-8.0,-18.4
COc1ccc(NC(=O)Cn2c3ccc(F)cc3c3ncn(Cc4ccccc4)c(=O)c32)cc1,4.1,7.3
CC(C)Cn1c(=O)c2c(nc3n2CCCN3c2ccc(F)cc2)n(C)c1=O,-1.0,-2.5
CN(C)CCCn1cnc2c(=O)oc3ccccc3c21,16.8,9.8
CC(=O)N1CCC(Oc2ccc(Cl)cc2C(=O)NCc2cnc3ccccc3c2)CC1,2.8,-1.6
COC(=O)/C=C/c1cc(O)ccc1O,-3.4,-10.1
O=C1C(=O)N(CN2CCOCC2)c2ccc(Br)cc21,-5.5,-6.8
O=C(Nc1ccc2c(c1)CN(C(=O)c1ccc3c(c1)OCO3)CC2)c1ccccc1Cl,10.6&11.4,2.1&3.6
CS(=O)(=O)CS(=O)(=O)N1CCOCC1,12.8,6.9
CNCC1OC2CCCCC2c2sccc21 (centres undefined),-1.3,-9.3
O=[N+]([O-])c1ccc(C=Nc2ccccc2F)o1,-0.5,25.3
CCOC(=O)C1CCCN(CC(=O)N2N=C(c3ccc(OC)cc3OC)CC2c2ccc3c(c2)OCO3)C1 (centres undefined),14.0,10.9
Cn1nc(CN2C(=O)c3ccccc3C2=O)c2ccccc2c1=O,-15.2,-19.6
Cc1cc[n+](C2=C(c3c(C)[nH]n(-c4ccc(Cl)cc4)c3=O)C(=O)N(c3ccc(F)cc3)C2=O)cc1,-2.8,5.9
Cc1cccn2c(NC(C)(C)CC(C)(C)C)c(-c3ccc(Cl)cc3)nc12,20.6,13.4
CCN(CC)C1CCN(C(=O)Nc2cc(F)c(OC)c(F)c2)C1 (centres undefined),8.1,2.3
O=C(O)[C@H]1C[C@]2(CCCCNC2=O)N(C(=O)C2CC2)[C@H]1c1ccco1,3.7,13.9
CC(=O)c1[nH]c(C)c(C(=O)N2CCOC(c3ccc(F)cc3)C2)c1C (centres undefined),13.2,10.1
Cc1cccn2c(=O)c3cc(C(=O)N4CC(C)CC(C)C4)n(C)c3nc12 (centres undefined),7.3,11.7
O=Cc1c(Cl)nc(Cl)n1-c1ccc(Cl)cc1,-1.6,-7.1
COc1cccc(CNCC2COc3ccccc3O2)c1OC(F)F (centres undefined),12.8,10.1
COc1ccc(-n2c(=O)[nH]c3c(C(N)=O)nc(-c4ccc(F)c(F)c4)nc32)c(OC)c1,-8.4,-9.2
COc1ccc2oc(C(=O)NCC3CCCCC3)c(C)c2c1,-10.8,-9.0
CN1CCC(C)(C(=O)Nc2cccc3ccccc23)C1 (centres undefined),-0.1,-0.6
C=C(C)CN(CC)C(=O)c1ccc(NS(=O)(=O)c2ccc(F)cc2)cc1,5.1,2.1
CCN1CCN(c2c(CN(CCC(C)C)C(=O)Nc3ccc(Cl)cc3)c(C)nn2-c2ccccc2)CC1,-0.9,12.1
O=C(NCCC1=CCCCC1)c1cc(N2CCN(c3cccc(C(F)(F)F)c3)CC2)nc2ccccc12,2.9,1.8
Cn1c(=O)c2cc3c(nc2n(C)c1=O)CC(C)(C)CC3=O,0.3,-3.9
Cc1nc(C)c(C(C)NC(=O)c2cc3c(cc2O)CCCC3)s1 (centres undefined),4.5,1.4
O=C(NC1CC(=O)N(C2Cc3ccccc3C2)C1)c1n[nH]c2c1CCCC2 (centres undefined),-6.2,-5.7
CC(=O)OCC(=O)[C@@]1(O)[C@H](OC(C)=O)CC2C3CCC4=CC(=O)C=C[C@]4(C)[C@@]3(F)[C@@H](O)C[C@@]21C (some centres undefined),-6.4,-10.5
O=C(CC1CSc2nc3[nH]ncc3c(=O)n21)Nc1ccc(Oc2ccccc2)cc1 (centres undefined),-0.5,22.2
N[C@H](C(=O)O)[C@H]1C[C@@H]1C(=O)O,1.0,-24.5
Cc1nn(C)c(C)c1CCC(=O)N1CCc2c([nH]c3ccccc23)C1c1cc(F)ccc1F (centres undefined),23.4&-7.6,19.9&-11.9
CC(C)C1CN(C(=O)CCn2cnnc2)CCC(=O)N1CC1CC1 (centres undefined),-1.7,-4.8
OC1CCN(C2CCN(Cc3cccc4[nH]ccc34)CC2)CC1,18.3,0.3
Cc1cc(C(C)(C)C)cc(C)c1Cn1c(Cl)nc2c1c(=O)n(C)c(=O)n2C,-2.4,-3.1
O=C(NC1CCN(c2ccccc2C(=O)N2CCc3ccccc3C2)CC1)C1CCCC1,-2.4,3.3
O=C(c1ccc(Cl)cc1)N1CCc2ccccc2C1c1ccccc1F (centres undefined),15.1,8.8
CSCC(=O)Nc1nc(-c2cccs2)cs1,7.3,6.6
Cc1nc(C)c(Cc2ccccc2Cl)c(N2CCN(C(=O)c3cccc(Cl)c3)CC2)n1,2.6,4.7
COCCN(CC(=O)N(Cc1cccn1Cc1ccc(Br)cc1)C1CCCCC1)S(=O)(=O)/C=C/c1ccccc1,-2.3,6.1
O=C(O)c1cc(Br)c(Cl)[nH]1,4.9,2.5
Cc1cc(NC(=O)c2ccc(C(F)(F)F)cc2)n(-c2nc3c(c(=O)[nH]2)CCC3)n1,14.1,5.2
CC1(c2ccc3c(c2)CCO3)NC(=O)c2ccccc2N1 (centres undefined),0.0,-2.2
Cc1occc1-c1nnc(SC(C)C(=O)N(C)C)n1C (centres undefined),0.3,0.3
Cc1cccc(CC2S/C(=C(/C#N)C(N)=O)N(c3ccc(Br)cc3)C2=O)c1 (centres undefined),-3.3,9.4
Cc1ccc(S(C)(=O)=O)cc1C(=O)NCc1ccccn1,-6.3,-6.1
COc1ccccc1/C=C/CN1CCCC(CNC(=O)c2cccnc2)C1 (centres undefined),3.1,0.9
Cc1ccc(NC(=O)N2CCN(C(=O)c3ccc(C)s3)CC2)cc1,0.0,-1.5
CCCN(Cc1ccc(OC)cc1)C(=O)c1cnc(N(C)C)nc1C,5.5,-8.3
Cc1ccc(CN(C)c2ccc(C(=O)O)cc2)cc1,-4.4,-5.2
O=C1COc2ccc(C(=O)CSc3nc4ccccc4c(=O)n3-c3ccc(F)c(Cl)c3)cc2N1,-0.7,-2.7
CCC(=O)Nc1ccc(-c2n[nH]c(CNC(=O)OC(C)(C)C)n2)cc1,0.7,58.2
C=CC[n+]1ccn(-c2nc3ccccc3nc2NS(=O)(=O)c2ccc3c(c2)OCCO3)c1,3.2,7.5
CC1Sc2cc(-c3ccc(Br)cc3)cn2C1=O (centres undefined),3.0,10.0
COc1cc(Cl)cc(CN2CCC(N)(C(=O)O)C2)c1OC (centres undefined),7.7,5.9

Next results
Compound,NPYLR7 ag,NPYLR7 ag max-min
c1ccc(CN(Cc2cnc3nccn3c2)Cc2nccs2)cc1,18.1,7.5
COCCn1c(=NC(=O)C2=COCCO2)sc2cc(C(=O)OC)ccc21,0.8,-0.4
CC(C)COc1nc(-c2cccc(C(F)(F)F)c2)n(-c2ccc(NC(=O)c3ccc([N+](=O)[O-])cc3)cc2)n1,22.8,24.2
CC(NC(=O)c1cccc(C#N)c1)c1ccccc1Cl (centres undefined),-5.8,-6.0
Cc1cc(C(=O)Nc2cc(C3CCOCC3)[nH]n2)c(C)n1C(C)C,-22.5,-26.0
CCc1ccc(C(O)c2ncc(-c3ccc(C)cc3)[nH]2)cc1 (centres undefined),-1.1,-4.1
COc1ccc(Cl)cc1-c1nc(C=Nc2cc(C)ccn2)c(O)o1,-10.2,-17.7
COc1cn(CC(=O)Nc2cccc(C)c2C)c(CN2CCN(C(C)=O)CC2)cc1=O,2.6,-1.3
CN(C)C(C(=O)NC1CCC(n2cnnc2)CC1)c1ccc(F)cc1 (centres undefined),-0.4,-4.6
CC(=O)CCc1ccc(OCC(=O)Nc2cccc(C(F)(F)F)c2)cc1,1.0,0.2
CCN1CCN(C(=O)c2ccc(CSc3nnc(-c4ccncc4)n3-c3cccc(C)c3)cc2)CC1,-1.1,7.1
Clc1ccccc1Cn1ccnc1CNCCN1CCOCC1,3.5,9.1
Cc1c(C(=O)NCc2ccccc2C(F)(F)F)sc(=O)n1CC(=O)c1ccc2c(c1)OCCO2,4.2,1.0
O=C(NCCn1cccc1)Nc1ccccc1OC(F)(F)F,0.9,1.8
CC1c2cccn2CCN1S(=O)(=O)c1ccccc1 (centres undefined),5.7,7.5
COc1cc(C(=O)N2CCOC(COc3ccc(C)cc3)C2)cc(OC)c1C (centres undefined),4.3,4.4
Cc1c(C(=O)N2CCCC(O)(CN(C)C)C2)n(C)c2c(C)cccc12 (centres undefined),-2.5,-7.2
CC(=O)Oc1c(-c2ccc(NC(=O)Nc3cccc(Cl)c3)cc2)c(-c2ccc(C)cc2)nn1-c1cccc(C)c1,-0.5,0.0
Cc1cc(F)ccc1NC(=O)CCC1CCCN(C(=O)c2coc3c2C(=O)CCC3)C1 (centres undefined),-1.8,-8.6
COc1cc(CNC(=O)c2cccnc2SC(F)(F)F)ccc1O,5.1,1.4
CS(=O)(=O)c1ccc(NC(=O)N(Cc2cccc(F)c2)C2CC2)cc1,7.6,5.9
COCC(=O)N[C@H]1C[C@@H](C(=O)NCc2ccc3c(c2)OCO3)N(C)C1,-1.6,-4.3
O=S1(=O)CCN2C(c3ccc(Oc4ccccc4)cc3)=CSC2=N1,1.8,1.3
CSCCCNC(=O)c1cc(N2CCCC(C)C2)nc2ccccc12 (centres undefined),17.1,15.5
CCN(CC1CCCO1)C(=O)c1ccc(C(=O)c2cc[nH]c2)cc1 (centres undefined),6.9,5.7
CCOC(=O)CNC(=O)COc1coc(CN2CCN(c3ccccc3)CC2)cc1=O,0.0,-1.2
COCCCN(CC(=O)N(CCc1c[nH]c2ccccc12)Cc1ccc(F)cc1)C(=O)c1ccc(C)c([N+](=O)[O-])c1,-5.9,1.0
COc1ccc2c(c1)C(COCc1ccc(C(=O)O)cc1)CC(C)(C)CO2 (centres undefined),2.8,12.7
Cc1ccccc1C(=O)Nc1sc2c(c1C(=O)N(C)C)CCCC2,5.3,3.4
Cc1ccc(Cl)c(NC(=O)N2CCN(c3ccc(NC(=O)c4ccccc4F)cn3)CC2)c1,2.9,6.4
C=CCN(CC(O)Cc1ccccc1)CC1CC(c2ccccc2)=NO1 (centres undefined),-1.1,6.5
CC[N+](C)(CC)CCC[n+]1c(-c2ccccc2)c2cc(N)ccc2c2ccc(N)cc21,-2.8,-10.3
Cc1cccc(C)c1NC(=O)N1CCCC(C(=O)c2ccc(-c3ccccc3)cc2)C1 (centres undefined),2.1,1.6
COc1ccc(OC)c(Cn2cc(Br)ccc2=O)c1,4.0,2.6
CCc1cccc2c(C(CC(=O)NCc3cccc(C(F)(F)F)c3)c3cccc(F)c3)c[nH]c12 (centres undefined),5.4,18.2
Cc1cc(C2NC(=O)c3ccncc3N2)ccc1-n1cncn1 (centres undefined),-0.3,-4.7
Cc1c(CCNC(=O)c2ccc(Br)o2)sc2nc(-c3ccc(F)cc3)nn12,2.1,-0.4
Cc1c(C#N)c(NC(=O)CN2CC(C)CC(C)C2)n(CC2CCCO2)c1C (centres undefined),6.5,8.5
O=C(Nc1nc(-c2cccnc2)cs1)c1ccccc1Br,-1.5,3.4
CN1CCN(C(=O)CCC2CCCN(Cc3cccc4cnccc34)C2)CC1 (centres undefined),3.5,-1.3
COc1ccc2ccccc2c1CCNC(C)CC(F)(F)F (centres undefined),17.1,9.6

The list is partial; rates above refer to the full screens.
